Source: PubChem (several laboratories)
PrP UTR inh – suppresses PrP 5' UTR mRNA reporter expression. cell-based PrP 5' UTR mRNA reporter, plate reader. inhibition, % (concentration not given with the values). 340,000 compounds, 0.35% hits. AID 488862;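 active means every replicate at 50% or more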;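 further: 0 = median of the neutral control wells; tested in H4 reporter cells; numbers are from one replicate; inactives centre near -14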
BJeLR lethal – BJeLR cell viability loss. inhibition, % (concentration not given with the values). 300,000 compounds, 0.17% hits. BJeLR (HRASV12) viability, CellTiter-Glo ATP luminescence, 48 h; reference of the scale not given here;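 active means replicate mean above 50%; inconclusive means above 50% but judged a plate artefact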;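 further: 50 nL library stock added to about 25 µL; numbers are from one replicate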
ugtP null kill – kills S. aureus RN4220 lacking UgtP. S. aureus RN4220 ugtP deletion, OD600 growth, 16 h; some inactives read as strong as hits. AID 1259309. growth inhibition, % (concentration not given with the values). 330,000 compounds, 0.54% hits;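 active means z-score under -3 and OD600 up to 0.15 on both plates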;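 further: plate controls were untreated wells for no effect and antibiotic for full effect; wells of about 80 µL received 100 nL stock; the first replicate is given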
Autofluor counter – counter-screen for toxin protease inhibitors: compound fluorescence | compound autofluorescence counterscreen, microsphere flow cytometry; hits give high values | AID 624483 | 360,000 compounds, 3.1% hits | fluorescence intensity (concentration not given with the values);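 active means at least 3 SD above the mean of all compounds, about 16000 in these data; inconclusive means too few beads counted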;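 further: 100 nL of 1 mM stock went into each well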
Sa RN4220 lethal – S. aureus RN4220 growth inhibition; OD600, 16 h; inhibition, % (no concentration beside the values); 330,000 compounds, 0.33% hits; AID 1259311;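 active means z-score of -3 or lower and OD600 up to 0.18 on both plates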;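 further: plate controls were untreated cells for no effect and reference antibiotic for full effect; stock transfer was 100 nL into about 80 µL; one replicate is shown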
Mtb hypoxia inh – reduces hypoxia-regulated biosensor signal in M. tuberculosis. M. tuberculosis hypoxia-regulated fluorescent reporter, fluorescence. fluorescence inhibition, % (no concentration beside the values). 300,000 compounds, 0.1% hits. AID 1159583;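 active means 35 to 45% if threefold the growth effect, above 45% if 1.5-fold the growth effect; inactive means the rest, general growth blockers included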;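 further: wells of about 50 µL received 100 nL stock; 0% = vehicle wells and 100% = reference inhibitor wells; whole bacteria with a GFP reporter of the hypoxia response; strong numbers were not always called active; many hits fall short of the cut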
Mtb hypoxia inh growth – also measured in Mtb hypoxia inh; calls as there; growth inhibition, %; measured here: M. tuberculosis growth (absorbance);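 0% = vehicle and 100% = reference antibiotic; read after six days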
An asterisk follows results filed as active; ? = inconclusive; / = not tested or not shown.

SMILES | PrP UTR inh | BJeLR lethal | ugtP null kill | Autofluor counter | Sa RN4220 lethal | Mtb hypoxia inh | Mtb hypoxia inh growth
CCN(CC(=O)Nc1ccc(OC)cc1)C(=O)Cc1coc2cc(C)c(C)cc12 | -17.2 | / | 3.6 | 3231 | 5.6 | 6.2 | 6.7
COc1cccc(NC(=O)N2CCN(c3nc(-c4cccc(OC)c4)cs3)CC2)c1 | -10.4 | 0.4 | -6.5 | 4224 | 4.1 | 6.2 | -0.7
CCCCn1c(-c2ccc(OC)cc2)nc2c(=O)n(C)c(=O)[nH]c21 | -14.1 | 2.2 | 7.0 | 3372 | 3.5 | 6.5 | 1.1
CN(c1ccc(OCC(=O)N2CCCC2)cc1)S(=O)(=O)c1ccc(Cl)cc1 | 7.2 | / | -5.1 | 6384 | 1.8 | 6.0 | 7.9
CCOC(=O)CNC(=O)CSc1nc2sc(C)c(C)c2c(=O)n1C | -19.9 | 0.0 | 3.8 | 23793* | 5.4 | 10.8 | 10.9
CC(=O)Nc1ccc(SCC(Cc2ccccc2)N2CCC(O)CCC2=O)cc1 (stereo not drawn) | / | / | -1.5 | / | 4.1 | 12.2 | 11.2
CC1C(=O)Nc2ccccc2N1C(=O)c1ccc(F)cc1F (stereo not drawn) | 4.4 | 7.0 | -7.6 | 4126 | -0.8 | -1.4 | 7.5
COc1cccc(CN(C)CC(O)COC(c2ccccc2)c2ccccc2C)c1 (stereo not drawn) | -13.5 | 9.0 | -6.4 | 3905 | -7.8 | -2.7 | 0.2
CCn1cc(C(=O)NCC2COc3ccccc3O2)c2cc(OC)c(OC)cc2c1=O (stereo not drawn) | -26.1 | -5.6 | -13.0 | 10004 | 6.3 | 1.4 | 13.5
COc1ccc(CNCCCNCc2ccc(OC)c(OC)c2)cc1OC | -13.1 | / | 6.0 | 3780 | 0.0 | 20.5 | 13.0
O=C(NCc1cccnc1)C(=O)Nc1nc2ccccc2s1 | -15.1 | -0.8 | -5.9 | 2461 | 4.6 | 12.6 | 0.6
COC(=O)N/N=C\c1ccc(-c2cc(Cl)c(Cl)cc2Cl)o1 | -58.3 | -6.3 | / | 10447 | / | / | /
COc1ccc(Cc2nnc(SCc3c(C)noc3C)n2C2CCCCC2)cc1OC | 0.8 | -0.3 | 0.5 | 4258 | 7.8 | / | /
Cc1sc2nc(CN3CCOCC3)nc(NS(=O)(=O)c3ccccc3)c2c1C | -22.9 | 2.9 | -10.3 | 5941 | 5.3 | / | /
Cc1nn(C)cc1-c1n[nH]c(=S)n1-c1ccc(F)cc1 | -13.7 | 4.8 | 2.0 | 2528 | 1.2 | 2.6 | 8.3
Cc1ccc(S(=O)(=O)C2(C(=O)O)CCCC2)cc1C | -4.0 | 5.6 | 4.3 | 7817 | 3.9 | 15.4 | 17.2
Cc1oc(C(C)(C)C)cc1C(=O)Nc1ccc2c(c1)OCCO2 | -80.5 | 4.8 | -16.0 | 3697 | -21.0 | 3.9 | 4.3
O=C(CSc1cc(Cl)ccc1Cl)NC1CCCC1 | -20.2 | -8.1 | 2.9 | 6088 | -3.6 | 6.3 | 7.1
Cc1ccc(CCCOC(=O)C[N+]2(C)CCCC2)cc1 | -38.8 | -16.5 | 5.3 | 2360 | 4.3 | 14.1 | 3.2
CSc1nc2sc3c(c2c(=O)n1C1CCCCC1)CCN(C)C3 | 7.0 | 7.4 | 13.9 | 5818 | 0.0 | / | /
COc1cccc(CN(CC(=O)NCC2CCCO2)C(=O)CCC(=O)Nc2cc(C)on2)c1 (stereo not drawn) | -21.9 | -11.6 | 5.6 | 4077 | 6.7 | 7.1 | 7.2
CCOc1ccc(C(=O)CSc2nnc(N)s2)cc1 | -47.5 | 24.3 | 4.7 | 4641 | -1.8 | / | /
COc1cc2c(cc1OC)CN(CC(=O)Nc1ccc(C)cc1)CC2 | -5.4 | -1.9 | 2.2 | 20583* | 2.1 | 8.0 | 9.9
CC(C)CNS(=O)(=O)c1cc(C(=O)N2CC(C)OC(C)C2)c(Cl)cc1Cl (stereo not drawn) | -26.9 | -0.7 | -2.4 | 8733 | 0.2 | 8.2 | 7.0
O=C(NC(=S)Nn1cnnc1)c1cccc(Br)c1 | -17.0 | -1.0 | 6.9 | 1943 | 6.0 | 1.1 | -2.1

Given with values under each structure: part of the list above.
Values in the order – PrP UTR inh, BJeLR lethal, ugtP null kill, Autofluor counter, Sa RN4220 lethal, Mtb hypoxia inh, Mtb hypoxia inh growth
O=C(NCc1cccnc1)C(=O)Nc1nc2ccccc2s1
  -15.1, -0.8, -5.9, 2461, 4.6, 12.6, 0.6
COC(=O)N/N=C\c1ccc(-c2cc(Cl)c(Cl)cc2Cl)o1
  -58.3, -6.3, /, 10447, /, /, /
COc1ccc(Cc2nnc(SCc3c(C)noc3C)n2C2CCCCC2)cc1OC
  0.8, -0.3, 0.5, 4258, 7.8, /, /
Cc1sc2nc(CN3CCOCC3)nc(NS(=O)(=O)c3ccccc3)c2c1C
  -22.9, 2.9, -10.3, 5941, 5.3, /, /

Next section
SMILES | PrP UTR inh | BJeLR lethal | ugtP null kill | Autofluor counter | Sa RN4220 lethal | Mtb hypoxia inh | Mtb hypoxia inh growth
CC(C)c1nc(CNC(=O)c2ccc(OC3CCN(Cc4ccccn4)CC3)cc2)cs1 | -16.1 | -4.0 | 1.9 | 5411 | 0.4 | -0.6 | 11.3
COC(=O)c1ccc(COC(=O)c2ccc(S(=O)(=O)N3CCC(C)CC3)cc2)o1 | -17.5 | -3.3 | 10.4 | 2212 | 2.7 | / | /
O=C(CN1CCN(C(=O)c2ccccc2)CC1)Nc1ccccc1 | -33.4 | 0.5 | -3.1 | 5345 | -0.4 | 8.9 | 6.1
CC(C)C(=O)Nc1nc(-c2ccc(S(=O)(=O)N3CCOCC3)cc2)cs1 | -3.5 | -3.0 | -8.1 | ? | -0.6 | -8.7 | -8.9
CCC1=C(OC(=O)N(CC)CC)N2C(=O)OC(=NCCOC)[C@]2(Cc2ccccc2)[C@H]2C1=CC[C@H]1C(=O)N(CC(=O)OC)C(=O)[C@H]12 | -13.2 | 3.9 | / | 3602 | / | / | /
CN(Cc1ccccc1)S(=O)(=O)c1ccc(Cl)c(C(=O)OCC(=O)NC2CCS(=O)(=O)C2)c1 (stereo not drawn) | -16.5 | / | 4.2 | / | 8.2 | 15.4 | 4.8
COc1ccccc1Nc1nc(N)nc(CSc2nnc(C)s2)n1 | -16.6 | -14.5 | 2.3 | 3264 | 0.3 | -4.4 | 1.1
CCN(Cc1ccccc1)S(=O)(=O)c1csc(C(N)=O)c1 | -4.1 | -8.4 | -0.8 | 4105 | 2.7 | -1.1 | 5.2
CN1CCCN(C(=O)/C=C/c2ccc(Cl)cc2Cl)CC1 | -11.7 | 14.1 | 6.3 | 4428 | 2.8 | 10.6 | 9.4
O=C(O)c1cc(-c2cc3ccccc3o2)nn1-c1ccccc1 | -8.8 | -0.9 | 1.9 | 4973 | -4.7 | -2.2 | -4.4
COc1cc2ccccc2cc1-c1nnc(COc2ccccc2)o1 | -3.4 | -8.6 | 4.9 | 6215 | 8.0 | / | /
CCCCN1CCC(=O)NC1=O | 3.6 | / | -2.5 | 2959 | 1.0 | 0.8 | -0.8
CCCCc1c(C)nc2ccc(Br)cc2c1SCCC#N | / | / | 1.0 | / | -2.5 | 3.5 | 4.6
O=C(Nc1ccn(Cc2ccccc2)n1)c1cccc(F)c1 | -115.1 | 15.7 | 5.2 | 2562 | 0.7 | -2.8 | -8.8
C[C@H]1CCC[C@@H](O)CCCC=Cc2cc(O)cc(O)c2C(=O)O1 | / | / | -7.1 | / | 1.7 | 8.1 | 3.2
O=C(NCc1nc2ccccc2[nH]1)C1=C[C@@H](c2ccc(Br)cc2)C[C@@H](OCc2ccc(CO)cc2)O1 | -16.9 | -7.6 | / | 3187 | / | / | /
Cc1sc(C(C2C(=O)CC(C)(C)CC2=O)C2C(=O)CC(C)(C)CC2=O)cc1[N+](=O)[O-] | -9.6 | 6.3 | -5.1 | 2169 | 10.6 | -0.5 | -0.2
Cc1cc(C(=O)Nc2cc(C(C)(C)C)on2)c(C)o1 | -89.8 | 4.4 | 11.0 | 5818 | -0.2 | -1.7 | 8.3
Cc1cccc(C(=O)Nc2cc(=O)n(C)c(=O)n2C)c1 | -6.4 | 4.5 | -3.8 | 5396 | 3.4 | -6.7 | 9.9
O=C(C1CCC(=O)N(C2CCCC2)C1)N1CCN(c2ccccc2Cl)CC1 (stereo not drawn) | 5.1 | 1.2 | 14.4 | 4712 | 3.4 | 3.3 | -2.7
CCOC(=O)C1CCCN(Cc2cc(=O)oc3cc(C)ccc23)C1 (stereo not drawn) | -38.6 | -6.7 | 5.0 | 4456 | 12.5 | -0.6 | 8.5
CCN(C(=O)COC(=O)c1nc(Cl)ccc1Cl)c1c(N)n(Cc2ccccc2)c(=O)[nH]c1=O | -11.7 | / | -1.2 | 4034 | 2.8 | 29.5* | 60.7*
C[C@@H]1NC(=O)/C(=C\c2ccccc2Cl)NC1=O | / | -5.4 | 4.8 | 6512 | 2.6 | -2.9 | -3.1
CNCC(O)c1cc(F)c(OCc2ccccc2)c(OCc2ccccc2)c1F (stereo not drawn) | -18.0 | 3.6 | -29.9 | 4045 | -5.9 | 17.9 | 4.5
CC(=O)NCCN1C(=O)C2C3c4ccccc4C(c4ccccc43)C2C1=O (stereo not drawn) | -14.5 | -5.9 | -2.5 | 10263 | 2.8 | 13.2 | 12.5

(further entries)
SMILES | PrP UTR inh | BJeLR lethal | ugtP null kill | Autofluor counter | Sa RN4220 lethal | Mtb hypoxia inh | Mtb hypoxia inh growth
COc1cc(NC(=O)c2ccccc2-c2ccccc2)cc(OC)c1 | -28.0 | 0.9 | -2.2 | 2566 | 1.5 | 0.9 | -0.3
Cc1ccccc1NC(=O)c1ccc(C)c(S(=O)(=O)NCc2cccnc2)c1 | 0.7 | 5.8 | -5.3 | 4532 | 1.4 | -3.1 | -1.0
Cc1cc(C)c2nc(SCC(=O)Nc3ccc(S(=O)(=O)N4CCCC4)cc3)c(C)cc2c1 | -24.0 | -5.2 | -10.1 | 8973 | 1.6 | -1.9 | 9.3
O=C(Nc1nnc(-c2ccccc2F)s1)Nc1ccccc1F | -82.9 | 5.5 | -2.3 | 2190 | 3.4 | 7.1 | 0.1
O=C(NCCNC(=O)c1ccccc1Br)c1cccnc1 | -6.8 | -4.0 | 9.7 | 4456 | 5.0 | -2.2 | -7.8
O=C(/C=C/c1ccco1)Nc1sc2c(c1C(=O)O)CCC2 | -16.6 | 9.0 | -6.2 | 16426* | 7.7 | 9.5 | 5.5
CCOC(=O)c1[nH]c2cc(OC)c(OC)cc2c1NC(=O)c1ccc2c(c1)OCO2 | 1.5 | 3.5 | 3.1 | 8206 | 6.3 | -1.8 | -2.8
CCOC(=O)c1ccc(-c2c(C(=O)OCC)oc3cc(O)c(CC)cc3c2=O)o1 | -7.7 | -2.6 | -9.9 | 3909 | 5.3 | 1.1 | 10.2
COc1ccc(OCC(=O)Nc2ccc3c(c2)n(C)c(=O)n3C)cc1 | -7.9 | 7.4 | 9.2 | 3990 | 5.3 | 2.9 | -2.5
CC(C)OCCCNc1nc2c(cnn2C)c(=O)[nH]1 | -38.0 | / | 4.6 | 3994 | 2.7 | -4.2 | 5.2
COc1ccc(C2CC(=O)C=C(c3ccc(Cl)c(Cl)c3)C2)cc1 (stereo not drawn) | / | / | 2.1 | / | -2.1 | 2.1 | -5.7
Nc1ccccc1C#CC(=O)c1ccccc1 | -6.1 | 20.5 | / | 3839 | / | / | /
NC(=O)c1nsc(C(=O)N(Cc2ccccc2F)C(C(=O)NCC2CCCO2)c2ccc(F)cc2)c1N (stereo not drawn) | -31.0 | 5.0 | -4.5 | 3874 | 10.8 | 14.0 | -1.8
O=C(NC1CCCCCC1)c1cc(S(=O)(=O)N2CCC3(CC2)OCCO3)ccc1F | -22.9 | 2.2 | 2.0 | 7724 | 3.9 | 12.2 | 5.8
CC(=O)c1ccc(-n2nnnc2SCC(=O)NC2CCCCC2)cc1 | -3.1 | 4.0 | -7.1 | 5579 | 6.2 | -1.7 | 9.1
COCC(C)n1c(C)cc(C(=O)COC(=O)CCc2nc3ccccc3c(=O)[nH]2)c1C (stereo not drawn) | -5.9 | 3.2 | -60.4 | 3453 | -0.6 | 11.4 | 5.7
CCOc1ccc(/C=C/C(=O)OCC(=O)NCCc2ccc(OCC)c(OCC)c2)cc1OC | -20.1 | -4.9 | 6.7 | 7243 | 7.0 | -0.1 | -0.5
